# HIV TAR-Tat: HIV-1 TAR-Tat binding disruption; HIV-1 TAR RNA, Tat peptide displacement FRET; stronger effect = higher value; z-score (concentration not given with the values); 100,000 tested, 0.6% active;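 also: score is relative to mean and SD of negative controls; some compounds called inactive have numbers as strong as hits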
# CDC25B-CDK2 inh: human CDC25B-CDK2/CyclinA binding inhibition. P30305+P24941. HTRF CDC25B-CDK2/CyclinA binding, anti-His/anti-Flag; stronger effect = higher value. z-score (concentration not given with the values). 94,000 tested, 0.72% active. AID 1259370;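 also: score is relative to mean and SD of negative controls; strong numbers were not always called active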
# The depositor's hits bear a star; . = no result given.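 The calls were made as follows: active = z-score from 3 up in half or more of its runs; inactive = the rest.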
# Start of the data: the first 3 records as a preview:
SMILES | CDC25B-CDK2 inh | HIV TAR-Tat
O=C(c1n[nH]c2c1CCCC2)N1CCN(Cc2noc3ccccc23)CC1 | . | -0.33
COc1cc(NC(=O)Nc2ccnn2C)cc(OC)c1 | 0.27 | .
Cc1cc(C)c2c(C)c(C(=O)NCC(c3ccco3)N3CCOCC3)oc2c1 (configuration not stated) | 0.63 | 1.8

# The whole of this part, from the first entry:
SMILES | CDC25B-CDK2 inh | HIV TAR-Tat
O=C(c1n[nH]c2c1CCCC2)N1CCN(Cc2noc3ccccc23)CC1 | . | -0.33
COc1cc(NC(=O)Nc2ccnn2C)cc(OC)c1 | 0.27 | .
Cc1cc(C)c2c(C)c(C(=O)NCC(c3ccco3)N3CCOCC3)oc2c1 (configuration not stated) | 0.63 | 1.8
CC1CC(C)CN(CCCNC(=O)Cn2ncn3nc(-c4cccs4)cc3c2=O)C1 (configuration not stated) | -1.5 | 0.01
O=c1[nH]c2cc3c(cc2c(=O)n1Cc1nc(-c2cccc(F)c2)no1)OCO3 | . | 1
Cc1cc(C)c(NS(=O)(=O)c2ccc3c(c2)NC(=O)C(C)CS3)c(C)c1 (configuration not stated) | . | 0.55
CCOC(=O)C(C#N)=C1CCN(Cc2ccccc2)CC1 | -3 | .
O=C(c1cnn(-c2cccc(F)c2)c1C1CCNCC1)N1CCN(c2ncccn2)CC1 | . | 0.96
O=C(NC1CC1)c1cnc2sc(N3CCCC3)nn2c1=O | . | -1
Cc1csc(NC(=O)CCc2c(C)nc3cc(-c4ccc(Cl)cc4)nn3c2C)n1 | -0.08 | .
NC(=O)c1c(Cl)cncc1Cl | -0.27 | .
CNS(=O)(=O)c1cc(-c2nnc3c4ccccc4c(C)nn23)ccc1OC | -1.6 | 2.4

# Next section:
SMILES | CDC25B-CDK2 inh | HIV TAR-Tat
CCCc1nn2c(=O)cc(COC(=O)CC(C)C)nc2s1 | . | 0.13
Cc1nn(-c2nc3ccc(Br)cc3s2)c2c1C(c1ccccc1)CC(=O)N2 (configuration not stated) | . | -0.4
CN(C)c1ccc(CC(C#N)c2ccc(N)cc2)cc1 (configuration not stated) | -0.24 | .
O=C(Nc1nnc(SCc2cc(=O)n3nc(C4CC4)sc3n2)s1)C1CCCCC1 | . | 0.54
Cc1ccc(NS(=O)(=O)c2ccc(CN3C(=O)c4cccnc4C3=O)cc2)nc1 | . | 0.65
CCn1c(=S)sc2c(=O)n3[nH]c(=O)c4ccccc4c3nc21 | -1.2 | 1.1
O=c1c(N2CCCCC2)csc2ccccc12 | . | -0.33
CC1CN(S(=O)(=O)c2ccc(CN3C(=O)c4cccnc4C3=O)s2)c2ccccc2O1 (configuration not stated) | . | 0.59
Cn1c(/C=C/c2cscn2)nc2ccccc21 | 0.56 | .
COc1cccc(Nc2nc(N)c([N+](=O)[O-])c(N3CCCCC3)n2)c1 | . | 0.44
O=c1c2ccccc2nc2n1CCCN2Cc1ccccc1Cl | 2.6 | 1.2
CCOC(=O)COc1ccc2c(C)c(C)c(=O)oc2c1C | -0.88 | .

# (more compounds)
SMILES | CDC25B-CDK2 inh | HIV TAR-Tat
O=C(c1cc(C2CC2)[nH]n1)N1CCN(c2ccc(F)cc2)CC1 | . | 0.31
O=C(NC1CCCCCCC1)C1CCC(CNS(=O)(=O)c2cccc3cccnc23)CC1 (configuration not stated) | -0.9 | .
C=CCN1C(=O)C2(/C(=C(/O)c3ccc(C)cc3)C(=O)C(=O)N2CCCN(C)C)c2ccccc21 (configuration not stated) | -0.96 | 4
FC(F)(F)c1nnc2sc(/C=C/c3ccccc3)nn12 | -0.3 | -0.55
O=C(c1ccccc1)c1cnc2cc3c(cc2c1S(=O)(=O)c1ccc(F)cc1)OCCO3 | -1.7 | -0.85
CS(=O)(=O)c1ccc(-c2ccc(NC(=O)CC3CCCC3)cc2)nn1 | . | 0.3
Cc1ccc(S(=O)(=O)CC2CSc3nc4ccccc4n32)cc1 (configuration not stated) | 0.14 | .
COc1cccc2cc(C(=O)Nc3cccc(C(=O)O)c3)c(=O)oc12 | -1.9 | .
O=C(NCc1ccc2c(c1)OCO2)c1ccc2c(c1)NC(=O)C1CCCCN21 (configuration not stated) | . | 1.9
O=C(CCc1nnc2ccc(NCc3cccnc3)nn12)NCc1ccc(F)cc1 | . | 1.9
Cc1ccc(Nc2nc(-c3ccccn3)cs2)c(C)c1 | -1.4 | -0.06
COCCCNC(=O)Cn1ncc2ccsc2c1=O | -0.4 | .

# Next section
SMILES | CDC25B-CDK2 inh | HIV TAR-Tat
CC1(C)CC(=O)C2=C(C1)Nc1ccccc1N(CC(=O)NCC1CCCO1)C2c1cccs1 (configuration not stated) | . | 1.9
O=C(Nc1nc2nc(-c3ccccc3)cc(=O)n2[nH]1)c1ccccc1 | -1.7 | 0.57
CCN(CC)CCCNC(=O)Cn1ncc2c3ccccc3n(C)c2c1=O | 0.9 | 0
CCN1CCC2(CC1)OC(=O)C(C)=C2C(=O)N1CCCC1 | . | 1.3
C=CCN1C(=O)/C(=c2\sc3n(c2=O)C(c2cccs2)C(C(=O)OC)=C(C)N=3)c2ccccc21 (configuration not stated) | -2.2 | .
O=C(C1CC1)N1c2nc(-c3ccco3)nn2C2(CCCCC2)[C@@H]2CCCC[C@@H]21 | -2.5 | -0.33
COc1ccc2[nH]c(=O)c(CN(C)S(C)(=O)=O)cc2c1 | -1 | -0.15
CCCc1nc(SC)ncc1C(=O)NCc1ccc2c(c1)OCO2 | . | -1.5
S=c1nc(NCc2cccc(Cl)c2)c2ccccc2[nH]1 | -6.4 | .
C=C(C)CSc1nc2sc3c(c2c(=O)[nH]1)CCCC3 | -5.2 | 1.4
CC(NC(=O)C(=O)NCc1ccco1)C(c1cccs1)N1CCN(c2ccc(F)cc2)CC1 (configuration not stated) | -2.4 | .
Cc1c(C(=O)N2CCNCC2)oc2ccccc12 | -0.08 | 1.1

# Following part:
SMILES | CDC25B-CDK2 inh | HIV TAR-Tat
COC(=O)C(=NNc1ccc(-n2nc(C)cc2C)cc1)C(=O)OC | -0.49 | .
Cc1c(NC(=O)c2ccco2)cc2c(c1[N+](=O)[O-])C(C)(C)CC2(C)C | -0.11 | .
Cc1ccc(Nc2c(-c3cccnc3)nc3ccc(C)cn23)cc1 | -1.4 | .
Cc1ccccc1OCc1nn2c(Cn3cnc4ccccc43)nnc2s1 | -0.47 | 0.24
CCCSc1nnc2c(n1)OC(c1ccc([N+](=O)[O-])o1)Nc1ccccc1-2 (configuration not stated) | -1.1 | -1.5
C=CCSc1nc2ncnc(N)c2[nH]1 | -0.44 | .
Cc1ccc(N2C(=O)c3oc4cc(C)c(C)cc4c(=O)c3C2c2ccc(O)cc2)nc1 (configuration not stated) | -0.69 | 2.4
O=C(CSc1nc2ccsc2c(=O)n1C1CCCCC1)NC1CCCCC1 | -1.9 | 3.2
COCc1cc(=O)n2c([nH]c3ccccc32)c1C#N | -1.3 | -6.3
Cc1ccc(-c2noc(-c3nnn(-c4ccc(Br)cc4F)c3C)n2)cc1 | . | 1.9
CCOC(=O)c1c(NC(=O)c2ccco2)sc2c1CCC(CC)C2 (configuration not stated) | -1.5 | 0.54
CC1CCN(c2cc3c(cc2F)c(=O)c(S(=O)(=O)c2cccc(Cl)c2)cn3C)CC1 | . | 1

# As entered above.
# COCc1cc(=O)n2c([nH]c3ccccc32)c1C#N in CDC25B-CDK2 inh → -1.3
# Cc1ccc(-c2noc(-c3nnn(-c4ccc(Br)cc4F)c3C)n2)cc1 in HIV TAR-Tat → 1.9

# Continuation:
SMILES | CDC25B-CDK2 inh | HIV TAR-Tat
Cc1cc2n(n1)C(c1sccc1C)Nc1ccccc1-2 (configuration not stated) | -0.09 | 0.66
Cc1c2cnn(-c3ccccc3)c(=O)c2c(C)n1CCCC(=O)NCCCN1CCCC1=O | 1 | 0.61
CCCC1c2cccn2CCN1C(=O)Nc1ccc2c(c1)OCO2 (configuration not stated) | . | -1.7
CCNc1nc(NCc2cc(OC)ccc2OC)c2cnn(C)c2n1 | . | 1.6
COC(=O)c1cccc(-n2c(C)cc(/C=C3\SC(NC(C)=O)=NC3=O)c2C)c1 | -2.8 | .
CCc1nnc(NC(=O)c2nc(SC)ncc2Cl)s1 | -2 | 2.3
Cc1cc(C)n(Cc2c(C(=O)N3CCC(C)CC3)noc2C)n1 | . | 1
Cc1nc(/C(N)=N/O)cs1 | -2.2 | .
COc1ccc(S(=O)(=O)NCC(c2ccco2)N2CCN(c3ccccc3)CC2)cc1 (configuration not stated) | . | 1.4
CCc1cc(C2CCCN2C(=O)c2cnn3c(C(F)(F)F)cc(-c4ccco4)nc23)on1 (configuration not stated) | . | -0.34
COc1ccc(S(=O)(=O)Nc2cccc(-c3ccc(N4CCCC4)nn3)c2)cc1OC | . | 2.1
CC1CC(C)CN(Cc2nc3c(c(=O)n(C)c(=O)n3C)n2CC(N)=O)C1 (configuration not stated) | -0.57 | -0.87

# Other results
SMILES | CDC25B-CDK2 inh | HIV TAR-Tat
CC1Cc2cc(S(=O)(=O)N3CCC(C(=O)NC4CCCC4)CC3)ccc2N1C(=O)C1CC1 (configuration not stated) | . | -0.99
COc1cccc(OCC(O)Cn2c[n+](C)c3cc(C)c(C)cc32)c1 (configuration not stated) | 0.54 | 0.21
CN(C)c1oc(-c2ccccc2)nc1C#N | -1.2 | 2.4
COc1ccc2c(c1)CCc1c-2n[nH]c1C(=O)NCCCN1CCCC1=O | . | 1.3
Cc1cc(C)n2cc(CSc3nnc(-c4ccccc4)o3)nc2n1 | . | -1.3
O=C(Cn1ncc2c(=O)oc3ccccc3c21)N1CCCN(Cc2ccccc2F)C1 | -2 | 1.2
COc1ccc(Cl)cc1NC(=O)NCc1c(-n2cccc2)sc2c1CCCC2 | -0.78 | 1.9
COc1cc(CN2C(=O)C(=O)c3cc(C)ccc32)ccc1OC(C)C | -0.87 | 3.1
O=C(O)c1ccc(CS(=O)c2ccccc2Cl)o1 (configuration not stated) | . | 1.4
COc1ccc(NC(=O)CSc2ncc3c(n2)-c2ccccc2N(C)S3(=O)=O)cc1OC | . | -0.94
O=C(C1CCN(S(=O)(=O)N2CCOCC2)CC1)N1CCC(c2ccncc2)CC1 | . | 2.5
COc1ccc(OCC(=O)Nc2nc(-c3cccs3)ns2)cc1 | -0.16 | 0.95

# (further entries)
SMILES | CDC25B-CDK2 inh | HIV TAR-Tat
Cc1cccn2c(=O)c(C(=O)NCCN(C)C)c(O)nc12 | -1.1 | -0.32
Cc1cc(-c2ccc(C(C)C)c(S(=O)(=O)Nc3cc(F)ccc3F)c2)on1 | . | 1
O=S1(=O)CCN2C(=N1)Sc1cc(SC(F)F)ccc12 | -2.4 | .
COC(=O)c1cnn2c1NCN(Cc1ccc(OC)cc1)C2 | -2.4 | 0.68
O=C(c1ccc2c(c1)OCCO2)c1ccccc1Cl | -2 | -0.36
CSc1ccc(-c2nc3ncccn3c2Nc2ccccc2)cc1 | -1.8 | 0.07
CCSc1nsc(NC(=O)Nc2ccc(OC)c(OC)c2)n1 | -2 | 1.1
COc1ccc(OCC(F)(F)F)c(C(=O)Nc2cccnc2)c1 | -1.7 | .
O=C(c1ccccc1F)N1CCN(c2ccc3nnc(-c4ccc(F)cc4)n3n2)CC1 | -0.81 | 0.7
Cc1[nH]nc2c1C(c1ccc(OC(=O)N3CCOCC3)cc1)C(C#N)=C(N)O2 (configuration not stated) | -1.4 | -0.87
CCCOC(=O)CSC1=C(C#N)C(c2ccc(C(C)C)cc2)CC(=O)N1 (configuration not stated) | -2.5 | -2.7
Cc1cc2ccccc2n1CCNC(=O)Cc1cccs1 | -0.63 | .

# Later entries
SMILES | CDC25B-CDK2 inh | HIV TAR-Tat
C/C=C/COC(=O)c1[nH]c2c(c1C)C(=O)CC(c1ccc(N(C)C)cc1)C2 (configuration not stated) | -1.9 | -2
O=C(CSc1nc2sc3c(c2c(=O)[nH]1)CCCC3)NCc1cccnc1 | -0.06 | .
O=C(Nc1ccc2nc3n(c(=O)c2c1)CCCCC3)C(=O)N1CCN(c2ccccc2F)CC1 | -2 | 2.4
CC1=Nc2cc(C(=O)NCCN3CCCC3)ccc2Sc2c(C)ccc(C)c21 | -0.53 | .
O=C1Cc2cc(S(=O)(=O)Nc3ccc4c(c3)OCO4)cc3c2N1CCC3 | . | 2.1
Cc1ccc(C)c(NC(=O)CSc2nncn3c2cc2oc(C)cc23)c1 | . | -12
COc1ccc(-c2cc(C(=O)Oc3ccc(Br)cc3)no2)cc1 | 0.83 | 1.2
O=C(O)c1c[nH]c2c(C(=O)O)cccc2c1=O | 0.23 | .
O=C(Nc1ccccc1F)C1COc2ccccc2C1 (configuration not stated) | . | 1.5
CCCCCCNC(=O)c1c[nH]c2ccc(S(=O)(=O)N3CCOCC3)cc2c1=O | -1.6 | 1.2
O=C(C1=C(N2CCc3ccccc32)c2ccccc2S1(=O)=O)N1CCOCC1 | . | 0.89
O=C1NCCN1CCNS(=O)(=O)c1cccc2nonc12 | -1.5 | .

# (more compounds)
SMILES | CDC25B-CDK2 inh | HIV TAR-Tat
Cc1cc(C)cc(Oc2c(C)oc3c(CN(C)C4CCN(C)CC4)c(O)ccc3c2=O)c1 | -1.3 | 0.21
O=C1c2ccccc2-c2onc3c(N4CCCC4)cc(N4CCN(C(=O)c5ccco5)CC4)c1c23 | 0.03 | 0.64
O=C(O)CCC(=O)N1N=C(c2ccccc2)CC1c1ccccc1F (configuration not stated) | -2 | .
CCc1c(C)sc(NC(=O)COCc2cc(-c3ccc4c(c3)OCO4)on2)c1C#N | . | -1.1
Cc1cc(NC(=O)Cn2cnc3c(oc4ccccc43)c2=O)no1 | -1.9 | .
CCOC(=O)c1noc2ncnc(Nc3cc(OC)ccc3OC)c12 | . | 0.45
Cc1ccc(Cl)cc1N1CCN(c2ncnc3c2nc2n3CCCC2)CC1 | . | 2.8
O=C(O)c1cc(-c2ccc(F)cc2)on1 | -1.4 | 2.2
CCCSc1nc(NCCO)c2c3c(sc2n1)COC(C)(C)C3 | -1.4 | -2
Cc1ccc2nc(NCCN3CCOCC3)c3nnnn3c2c1 | -2.1 | -0.27
CN(CCNc1ncnc2onc(-c3ccc(Cl)cc3)c12)c1ccccc1 | -0.16 | 0.49
CCOc1nc2ccccc2nc1C(=O)Nc1nc(C)cs1 | . | 1.5

# Hits appear at their usual frequency (roughly 0.94% active in at least one column).
